Screening results deposited in PubChem by Broad Institute.
Vaccinia stage: Vaccinia orthopox stage-specific inhibition | Vaccinia-infected cells, mCherry/Venus stage reporter fluorescence; hits give low values; some inactives read as strong as hits | activity change (mCherry), % (concentration not given with the values) | hit rate 0.01% among 89,000;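 active means mCherry past -33% and 40 or more points under the early reporter, replicates agreeing; inconclusive means past -33% without that gap or agreement; tested in A549 cells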;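 further: scaled between vehicle wells and reference inhibitor wells; 23 nL library stock went into each well; one replicate is shown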
Vaccinia stage Venus: further read-out of Vaccinia stage, marked with its call; activity change (Venus), %; measured here: Venus reporter, other viral stage;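 negative = less Venus signal; first of two replicates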
An asterisk follows results filed as active; u = inconclusive; x = no result given; & = joins results of further samples.

SMILES	Vaccinia stage	Vaccinia stage Venus
COc1ccc(S(=O)(=O)N(C)C[C@@H]2Oc3ccc(NS(=O)(=O)c4c(C)noc4C)cc3CC(=O)N([C@H](C)CO)C[C@@H]2C)cc1	8.2	1.4
Cc1noc(C)c1NC(=O)N(C)C[C@@H]1Oc2ccc(NC(=O)NC3CCCCC3)cc2C(=O)N([C@H](C)CO)C[C@H]1C	11.1	8.8
CNC[C@H]1Oc2c(NS(C)(=O)=O)cccc2C(=O)N([C@H](C)CO)C[C@H]1C	10.5	5.9
C[C@H]1CN([C@@H](C)CO)C(=O)Cc2cc(N(C)C)ccc2O[C@H]1CN(C)Cc1ccc(-c2ccccc2)cc1	-19.2	-19.6
CCCc1cn(CC[C@H]2CC[C@@H](NS(=O)(=O)c3ccccc3Cl)[C@@H](CO)O2)nn1	6.0	1.1
CC(C)(C)[S@@](=O)N1Cc2cc(C(=O)NCc3ccccc3F)nc(-c3cccc(-c4cccnc4)c3)c2[C@H]1CCO	-11.8	1.0
N#C[C@@H]1[C@H](c2ccc(-c3cncnc3)cc2)[C@H](CO)N1C(=O)CN1CCOCC1	22.5	16.5
C[C@H]1CN([C@@H](C)CO)S(=O)(=O)c2ccc(C#Cc3cccnc3)cc2O[C@H]1CN(C)CC1CCOCC1	11.6	3.8
CN(C)C(=O)[C@@H]1[C@@H](CO)[C@@H]2Cn3c(ccc(C4=CCCCC4)c3=O)[C@@H]2N1Cc1ccccn1	-4.5	-4.1
Cc1noc(C)c1S(=O)(=O)N(C)C[C@H]1Oc2ccc(NC(=O)CCC(F)(F)F)cc2CC(=O)N([C@@H](C)CO)C[C@H]1C	10.6	4.8
C[C@H](CO)N1C[C@H](C)[C@@H](CN(C)C(=O)Nc2ccccc2)Oc2ccc(NC(=O)Nc3ccc(F)cc3)cc2CC1=O	11.6	6.7
C[C@@H]1CN([C@@H](C)CO)C(=O)c2cccc(NC(=O)Nc3ccc4c(c3)OCO4)c2O[C@H]1CN(C)CC1CC1	-1.8	9.0
COc1ccc(-c2cn(CC[C@@H]3CC[C@H](NC(=O)Cc4ccccn4)[C@@H](CO)O3)nn2)cc1	7.0	-0.7
COCC#Cc1cnc2c(c1)C(=O)N([C@@H](C)CO)C[C@H](C)[C@H](CN(C)C(=O)c1cccc(F)c1)O2	-0.6	18.3
C[C@@H]1CN([C@@H](C)CO)S(=O)(=O)c2ccc(C#C[C@@H](C)O)cc2O[C@@H]1CN(C)C	29.5	11.3
CCCNC(=O)C[C@@H]1CC[C@H]2[C@@H](COc3ccc(NC(=O)c4cccc(C(F)(F)F)c4)cc3C(=O)N2C)O1	8.7	13.7
C[C@H](CO)N1C[C@H](C)[C@@H](CN(C)CC2CC2)Oc2c(NS(=O)(=O)c3cn(C)cn3)cccc2C1=O	11.9	14.1
COc1ccc(NC(=O)N[C@@H]2CC[C@@H](CCNC(=O)Cc3ccncc3)O[C@H]2CO)cc1	6.0	9.1
COCC(=O)N(C)C[C@@H]1Oc2ncc(C#Cc3cccnc3)cc2C(=O)N([C@H](C)CO)C[C@H]1C	13.9	4.2
COc1ccc(S(=O)(=O)Nc2ccc3c(c2)C(=O)N([C@H](C)CO)C[C@H](C)[C@H](CN(C)Cc2ccc(Oc4ccccc4)cc2)O3)cc1	u	x
O=C1N[C@@H](Cc2ccccc2)C(=O)N2[C@@H]1C[C@@H](C(=O)NCc1ccc(F)cc1)[C@H]2c1ccc(O)cc1	18.1	6.8
CCNC(=O)Nc1ccc2c(c1)C(=O)N(C)[C@H]1CC[C@@H](CC(=O)NCCOC)O[C@H]1CO2	17.0	15.2
COc1ccc(-c2cc3c(c(-c4ccc(Oc5ccccc5)cc4)n2)[Si](C(C)C)(C(C)C)OC3)cn1	14.6	23.0
COc1ccc(S(=O)(=O)Nc2ccc3c(c2)C(=O)N([C@H](C)CO)C[C@@H](C)[C@H](CN(C)C(=O)Cc2ccccc2)OCCCC[C@@H](C)O3)cc1	-16.4	-17.1
COc1ccc(NC(=O)Nc2ccc3c(c2)[C@@H]2C[C@H](CC(=O)N4CCN(C)CC4)O[C@H](CO)[C@@H]2O3)cc1	-1.5	-3.0
CO[C@H]1CC[C@H]2CCOc3c(C#N)cccc3C(=O)N(C)C[C@@H](OC)[C@@H](C)C(=O)N(C)C[C@H]1O2	14.6	7.6
O=C(C[C@@H]1C[C@@H]2c3cc(NS(=O)(=O)c4ccc(F)cc4)ccc3O[C@@H]2[C@H](CO)O1)N1CCOCC1	13.0	5.3
COc1ccc2c3c([nH]c2c1)[C@@H](CO)N(C(=O)Nc1cccc(F)c1)CC31CN(CC2CCOCC2)C1	-22.6	-22.6
Cc1ccc(S(=O)(=O)N2CC[C@@H]3[C@H](CO)Nc4ccc(-c5cccc(C(=O)N(C)C)c5)cc4[C@@H]32)cc1	u	x
Cc1ccc(-c2ccc([C@@H]3[C@@H](CO)N4CCCCN(S(=O)(=O)c5cccc(C)c5)C[C@@H]34)cc2)cc1	11.3	2.4
C[C@@H]1CCCCO[C@@H](CN(C)C(=O)c2ccncc2)[C@@H](C)CN([C@H](C)CO)C(=O)c2cc(NS(=O)(=O)c3ccccc3)ccc2O1	32.6	25.0
CN(C)CC(=O)Nc1ccc2c(c1)[C@@H]1C[C@H](CC(=O)N(C)C)O[C@H](CO)[C@@H]1O2	7.5	10.2
COc1ccccc1NC(=O)N[C@@H]1CC[C@H](CCn2cc(-c3ccccc3OC)nn2)O[C@H]1CO	-15.3	-7.4
O=C1N[C@H](c2ccccc2)COCc2cn(nn2)CC[C@@H]1Cc1ccccc1	12.7	4.7
COc1cccc(-c2cnc3c(c2)C(=O)N([C@H](C)CO)C[C@@H](C)[C@H](CN(C)Cc2ccc(C(=O)O)cc2)O3)c1	15.1	9.3
O=C(Nc1ccccc1Cl)N1C[C@H]2[C@@H](c3ccccc31)[C@H](CO)N2C(=O)c1cccnc1	15.1	7.7
CCC(=O)Nc1ccc2c(c1)OC[C@H](C)N(Cc1ccccc1)C[C@H](C)[C@H](OC)CN(C)C2=O	-9.4	-5.0
CCC(=O)NC[C@H]1[C@@H](c2ccccc2)[C@@H](CO)N1C(=O)C1CC1	1.0	7.0
C[C@H](CO)N1C[C@H](C)[C@@H](CN(C)C(=O)Cc2cccnc2)Oc2ncc(C#CCN(C)C)cc2C1=O	17.7	6.9
O=S(=O)(N[C@H]1CC[C@H](CCn2cc(-c3ccccn3)nn2)O[C@H]1CO)c1cccc(Cl)c1	-18.6	-7.5
CCC(=O)N1CCCCN2[C@@H](CO)[C@@H](c3ccc(C#CCOC)cc3)[C@@H]2C1	18.8	-0.2
C#CCNC(=O)C1=C[C@H](c2ccccc2)[C@@H](CCCO)[C@H](OCC)O1	20.9	7.9
O=C(c1cccc(F)c1)N1CCCCN2[C@H](C1)[C@H](c1ccc(-c3cncnc3)cc1)[C@@H]2CO	33.9	6.5
COc1ccc2c3c([nH]c2c1)[C@H](CO)N(S(C)(=O)=O)CC31CCN(CC2CCCC2)CC1	-23.5	-28.8
C[C@H]1CN([C@@H](C)CO)C(=O)Cc2cc(NC(=O)c3ccncc3)ccc2O[C@@H]1CN(C)S(=O)(=O)c1cn(C)cn1	8.2	4.3
C[C@@H]1CN([C@@H](C)CO)C(=O)Cc2cc(NC(=O)NC3CCCCC3)ccc2O[C@H]1CN(C)S(=O)(=O)c1ccccc1	-5.0	1.4
CCCNC(=O)N1[C@H](CO)[C@H](c2ccc(/C=C/c3ccccc3)cc2)[C@@H]1C#N	11.4	13.5
COc1ccccc1S(=O)(=O)N(C)C[C@H]1OCc2ccccc2-c2c(n(C)c3ccccc23)C(=O)N([C@H](C)CO)C[C@@H]1C	u	x
C[C@@H]1CCCCO[C@H](CN(C)Cc2ccccc2)[C@H](C)CN([C@@H](C)CO)C(=O)c2cc(NS(=O)(=O)c3cccs3)ccc2O1	u	x
CCC(=O)N(C)C[C@H]1Oc2cc(Br)ccc2S(=O)(=O)N([C@@H](C)CO)C[C@H]1C	14.1&13.7	11.2&8.3
N#C[C@H]1[C@@H](c2ccccc2C2=CCCC2)[C@H](CO)N1S(=O)(=O)c1ccccc1	-3.5	-7.1
C[C@H](CO)N1C[C@H](C)[C@H](CN(C)C(=O)Nc2ccc(F)cc2)Oc2ccc(NS(=O)(=O)c3ccc(Cl)cc3)cc2C1=O	14.9	10.5
CNC[C@@H]1Oc2ccc(NC(=O)C3CC3)cc2CC(=O)N([C@H](C)CO)C[C@@H]1C	u	x
O=C(C[C@@H]1CC[C@H]2[C@@H](COC[C@@H](O)CN2S(=O)(=O)c2ccc(Oc3ccccc3)cc2)O1)Nc1ccccc1	u	x
C[C@H](CO)N1C[C@H](C)[C@@H](CN(C)Cc2ccccn2)Oc2cc(C3=CCCC3)ccc2S1(=O)=O	-5.0	-4.6
C[C@H]1CN([C@@H](C)CO)C(=O)c2cc(C#CC3CCCCC3)cnc2O[C@@H]1CN(C)S(=O)(=O)c1cccc(F)c1	u	x
COCC(=O)Nc1ccc2c(c1)OC[C@H](C)N(Cc1ccccn1)C[C@@H](C)[C@H](OC)CN(C)C2=O	11.1	8.8
CCNC(=O)[C@H]1[C@H](CO)[C@H]2Cn3c(ccc(C4=CCCC4)c3=O)[C@@H]1N2C(=O)CC	13.3	15.9
C[C@H](CO)N1C[C@H](C)[C@H](CN(C)S(=O)(=O)c2ccc(C#N)cc2)Oc2ncc(-c3cccc(F)c3)cc2C1=O	-10.4	-16.1
CCCNC(=O)N1C[C@H](O)COC[C@@H]2O[C@@H](CC(=O)N3CCC(Cc4ccccc4)CC3)CC[C@H]21	-2.7	2.9

At a glance, part of the list above:
SMILES	Vaccinia stage	Vaccinia stage Venus
C[C@@H]1CN([C@@H](C)CO)C(=O)Cc2cc(NC(=O)NC3CCCCC3)ccc2O[C@H]1CN(C)S(=O)(=O)c1ccccc1	-5.0	1.4
CCCNC(=O)N1[C@H](CO)[C@H](c2ccc(/C=C/c3ccccc3)cc2)[C@@H]1C#N	11.4	13.5
COc1ccccc1S(=O)(=O)N(C)C[C@H]1OCc2ccccc2-c2c(n(C)c3ccccc23)C(=O)N([C@H](C)CO)C[C@@H]1C	u	x
C[C@@H]1CCCCO[C@H](CN(C)Cc2ccccc2)[C@H](C)CN([C@@H](C)CO)C(=O)c2cc(NS(=O)(=O)c3cccs3)ccc2O1	u	x
CCC(=O)N(C)C[C@H]1Oc2cc(Br)ccc2S(=O)(=O)N([C@@H](C)CO)C[C@H]1C	14.1&13.7	11.2&8.3
N#C[C@H]1[C@@H](c2ccccc2C2=CCCC2)[C@H](CO)N1S(=O)(=O)c1ccccc1	-3.5	-7.1

Later entries:
SMILES	Vaccinia stage	Vaccinia stage Venus
CN(C)CC(=O)N1CC(=O)N2[C@@H](CO)[C@H](c3ccc(/C=C/c4ccccc4)cc3)[C@@H]2C1	6.1	3.6
C[C@H]1CN([C@@H](C)CO)C(=O)c2cc(NC(=O)Cc3ccccc3)ccc2O[C@H]1CN(C)S(=O)(=O)c1cn(C)cn1	4.3	11.3
C[C@@H]1CN([C@H](C)CO)S(=O)(=O)c2ccc(C#Cc3cccc(F)c3)cc2O[C@H]1CN(C)S(=O)(=O)c1ccccc1F	-35.0	-27.2
CO[C@H](CN(C)S(=O)(=O)c1cccc(Cl)c1)[C@H](C)CN([C@H](C)CO)S(=O)(=O)c1ccc(Cl)cc1	-30.2	-22.8
C[C@@H]1CN([C@@H](C)CO)C(=O)c2cc(NC(=O)Cc3ccccc3)ccc2O[C@@H]1CN(C)C	13.5	5.2
Cc1ccc(S(=O)(=O)Nc2ccc3c(c2)C(=O)N([C@H](C)CO)C[C@@H](C)[C@@H](CN(C)S(C)(=O)=O)OCCCC[C@H](C)O3)cc1	21.7	15.3
COc1ccccc1NC(=O)N(C)C[C@H]1Oc2cc(Br)ccc2S(=O)(=O)N([C@H](C)CO)C[C@@H]1C	-2.6&-12.3	3.0&-7.9
C[C@H]1CN([C@@H](C)CO)C(=O)c2cc(NS(=O)(=O)c3cn(C)cn3)ccc2O[C@@H]1CN(C)Cc1ccc(C(F)(F)F)cc1	-4.5	-1.9
CO[C@@H]1CN(C)C(=O)c2ccc(NC(=O)C3CC3)cc2OC[C@@H](C)N(Cc2nccs2)C[C@H]1C	9.2	11.6
O=[N+]([O-])c1ccccc1S(=O)(=O)N1CCN(Cc2cccc(OCCO)c2)CC1	-0.8	-2.5
COc1cccc(C(=O)Nc2ccc3c(c2)OC[C@H](C)N(CCc2ccccc2)C[C@H](C)[C@H](OC)CN(C)C3=O)c1	u	x
COCCNC(=O)C[C@@H]1C[C@H]2c3cc(NC(=O)NC4CCCCC4)ccc3O[C@H]2[C@H](CO)O1	2.3	2.3
CNC[C@H]1OCCCC[C@H](C)Oc2ccc(NC(=O)Nc3ccccc3)cc2C(=O)N([C@@H](C)CO)C[C@@H]1C	-4.0	-1.8
CCCNC(=O)[C@H]1[C@H](CO)[C@H]2Cn3c(cccc3=O)[C@H]2N1CC1CCCC1	4.8	5.3
O=C(c1ccc2c(c1)OCO2)N1C[C@@H]2[C@H](c3ccccc31)[C@H](CO)N2Cc1cccnc1	12.9	16.2
C[C@@H]1CCCCO[C@H](CN(C)C(=O)Nc2ccc3c(c2)OCO3)[C@H](C)CN([C@H](C)CO)C(=O)c2cc(NC(=O)Nc3ccc(C(F)(F)F)cc3)ccc2O1	1.5	11.1
CCC(=O)Nc1ccc2c(c1)C(=O)N(C)C[C@H](OC)[C@H](C)CN[C@@H](C)CO2	-4.7	2.3
C[C@@H]1CCCCO[C@H](CN(C)C(=O)Nc2ccc(C(F)(F)F)cc2)[C@@H](C)CN([C@@H](C)CO)C(=O)c2cc(NC(=O)CCC(F)(F)F)ccc2O1	-27.4	-8.8
CN1C(=O)c2cc(NC(=O)c3cccs3)ccc2OC[C@H]2O[C@H](CC(=O)NCC(F)(F)F)CC[C@H]21	1.1	-0.2
C[C@@H]1CCCCO[C@H](CN(C)C(=O)Nc2ccccc2)[C@H](C)CN([C@H](C)CO)C(=O)c2cc(NC(=O)NC3CCCCC3)ccc2O1	-8.1	-11.4

The list is partial, so the mix of outcomes need not match the whole.
